Vaccinia mCherry: inhibitors of vaccinia virus infection (mCherry reporter signal); Vaccinia virus mCherry reporter infection, fluorescence; about a quarter of the inactives have no number; Potency, µM (titrated, usually from 36.5 µM), without a hit: top-dose activity change, negative = inhibition, usual class: inhibitors; actives 0.63% (n = 310,000); AID 720579; active = well fitted inhibition curve with a large enough effect; inconclusive = small, poorly fitted or top-dose-only effect; inactive = no such curve, though single readings can be large or run the other way; tested in A549 cells; note: nearly all actives have a fitted effect of over 35% in size; inactives centre near -10
VACV Venus inh: inhibitors of vaccinia virus (Venus reporter); Vaccinia virus Venus reporter expression, fluorescence; Potency, µM (titrated, usually from 36.5 µM), without a hit: top-dose activity change, negative = inhibition, usual class: inhibitors; actives 0.46% (n = 330,000); AID 720580; active means well fitted inhibition curve with a large enough effect; inconclusive means small, poorly fitted or top-dose-only effect; inactive means no such curve, though single readings can be large or run the other way; tested in A549 cells; note: nearly all actives have a fitted effect of over 30% in size; inactives centre near -10
* hit, by the source's call; i = inactive; ? = inconclusive; . = not tested or not shown; & = joins results of further samples; [ ] = another dose, or the depositor's remark. % is set by controls: 0 for no effect and ±100 for the full control effect; potency is the fitted concentration of half-maximal effect.

cpd	Molecule	Vaccinia mCherry	VACV Venus inh
1	COc1ccccc1C(=O)NC(CCSC)C(=O)NC1CCCCCC1 (centres undefined)	-10%	-9%
2	COc1cccc(COC(=O)C2CCN(S(=O)(=O)c3cccs3)CC2)c1OC	i	-16%
3	O=C(CN1CCOCC1)NN=C1CCCCCCCCCCC1	-13%	-18%
4	Cc1ccc(C(=O)NC2CCCCC2)cc1S(=O)(=O)N1CCCC1	-5%	-16%
5	CCc1ccccc1NC(=O)CSc1nc(C)c(C)o1	i	-8%
6	CCCn1c(C(C)Nc2nc(-c3cc(Cl)c(N)c(Cl)c3)cs2)nc2cc(Cl)c(N3CCCCC3)cc21 (centres undefined)	?	-6%
7	CCCCc1ccc(NC(=S)NCc2cccc(OC)c2)cc1	-18%	-17%
8	Cc1nc(-c2ccc(F)cc2)c(CC(=O)N(C)CC(=O)Nc2ccccc2Br)s1	-7%	-4%
9	Cc1ccccc1NC(=O)c1cc2ccccc2o1	-2%&-3%	5%&4%
10	CNC[C@H](CC1CCCCC1)NC[C@H](CO)NCC1(c2ccccc2)CC1	-8%	-16%
11	O=C(Cn1cncn1)N1CCOc2ccc(CN3CCN(c4ccccc4)CC3)cc2C1	-9%	-8%
12	Clc1ccc(CN2CCC(Cc3ccccc3)CC2)cc1	-9%	?
13	C=CCNC(=O)CC(=O)N/N=C/c1ccccc1F	i	-12%
14	CCCCC(=O)NC(NC(=O)CCCC)c1ccc(OCCC)c(OC)c1	i	-25%
15	Cc1ccc2nc(/C(C#N)=C/c3ccc(-c4ccc(F)cc4F)o3)[nH]c2c1	?	16%
16	CCC1(C2CCN(Cc3cc4ccccc4o3)CC2)NC(=O)N(CC2COc3ccccc3O2)C1=O (centres undefined)	?	-35%
17	O=C(COC(=O)c1cccc(S(=O)(=O)N2CCc3ccccc32)c1)Nc1ncc(Cl)cc1Cl	-22%	-3%
18	COc1cccc(CNC(=O)[C@@H]2CCCN2C(=O)[C@H]2CCCCN2)c1	-12%	-6%
19	CCOC(=O)C1=CNS(=O)(=O)NC1c1ccc2ccccc2c1 (centres undefined)	i	-5%
20	Cc1ccc(C(=O)N2CCN(C(=O)CN3CCCC3)C2)cc1	.	-23%
21	Cc1ccc(C)c(N2CCN(CCCNC(=O)Cn3cc4c(n3)CCC(C)C4)CC2)c1 (centres undefined)	-22%	-18%
22	O=c1[nH]nc2c3ccccc3cnn12	.	-8%
23	COCCCNc1nc2c(c(=O)n(Cc3ccccc3)c(=O)n2C)n1C	-6%	7%
24	CCCCN(C)CCCNC(=O)CCn1nc(-c2ccccc2)ccc1=O	-9%	-4%
25	COc1ccc(S(=O)(=O)Nc2cc3c4c(oc3c3ccccc23)CCCC4=O)cc1	?	?
26	O=C(CSc1ncnc2scc(-c3ccccc3)c12)NC1CCS(=O)(=O)C1 (centres undefined)	-19%	-15%
27	COCCN(CCOC)C(=O)c1ccc(NS(=O)(=O)c2ccc3[nH]c(=O)[nH]c3c2)cc1	-5%	-9%
28	C[C@@]12C(=O)N(c3ccc(C(F)(F)F)cc3)C(=O)N1[C@@H]1c3ccccc3OC[C@@H]1[C@H]2c1ccccc1	i	-15%
29	O=C(CCc1n[nH]c(=O)[nH]c1=O)Nc1cccc([N+](=O)[O-])c1	i	2%
30	Cc1cc(CNC[C@H]2O[C@@H](n3ccc(=O)[nH]c3=O)[C@H](O)[C@@H]2O)no1	8%	1%
31	CCOC(=O)Cc1csc(SCC(=O)Nc2sc3c(c2C(N)=O)CCC3)n1	.	6%
32	Cc1nn(Cc2ccc(Cl)cc2)c(Cl)c1/C=N/NC(=O)CNc1ccccc1F	-11%	?
33	COC(=O)C1=C(C)N(Cc2ccco2)C(=O)N[C@@H]1c1ccc(Br)cc1	-15%	-11%
34	Cc1oc(-c2cccc(Cl)c2)nc1CN1CCC(C(=O)NCCCN2CCN(c3ccc(F)cc3)CC2)CC1	-30%	?
35	CN(CC(=O)Nc1ccccc1Cl)C(=O)COC(=O)CCN1C(=O)C2CC=CCC2C1=O (centres undefined)	i	-15%
36	CC(C)CCNC(=O)c1ccc(NC(=O)N2CCCCc3ccccc32)cc1	-15%	-15%

The final four entries of the section above come first, to join the parts.
cpd	Molecule	Vaccinia mCherry	VACV Venus inh
33	COC(=O)C1=C(C)N(Cc2ccco2)C(=O)N[C@@H]1c1ccc(Br)cc1	-15%	-11%
34	Cc1oc(-c2cccc(Cl)c2)nc1CN1CCC(C(=O)NCCCN2CCN(c3ccc(F)cc3)CC2)CC1	-30%	?
35	CN(CC(=O)Nc1ccccc1Cl)C(=O)COC(=O)CCN1C(=O)C2CC=CCC2C1=O (centres undefined)	i	-15%
36	CC(C)CCNC(=O)c1ccc(NC(=O)N2CCCCc3ccccc32)cc1	-15%	-15%
37	COC(=O)CCC(=O)NNC(=O)Cc1ccccc1	i	-6%
38	O=C(Nc1ccc(S(=O)(=O)N2CCOCC2)cc1)c1c(F)cccc1F	-21%	-3%
39	Cc1ccc(NC(=O)Cn2nc(C(=O)Nc3ccc(C)cc3)ccc2=O)cc1	i	-12%
40	COc1ccc(/C=C/CN2CCCC(CO)(Cc3cccc(Cl)c3)C2)cc1 (centres undefined)	-25%	?
41	Cc1csc2nc(CSc3nncn3-c3ccccc3)c(Br)n12	.	-13%
42	Cc1noc(C)c1NC(=O)N(C)C[C@H]1Oc2c(NC(=O)c3ccncc3)cccc2C(=O)N([C@H](C)CO)C[C@@H]1C	-11%	-9%
43	CC(=O)NNC(=O)CCn1c2c(c3ccccc31)CCCC2	i	5%
44	CN(C)CCC1(c2ccccc2)CCN(C)C1=O (centres undefined)	i	-15%
45	Cn1c(Cc2csc(N)n2)nnc1SCC(=O)NCc1ccccc1	i	-4%
46	COc1ccc(Oc2nccc(-c3ccc(Cl)cc3)n2)cc1	.	4%
47	CCN(CC)C(=O)C1=C(C)N(Cc2ccc(OC)cc2)C(=O)C(CC(=O)NC(c2ccccc2)c2ccccc2)C1 (centres undefined)	i	-25%
48	COc1cccc(C2c3[nH]c4ccccc4c3CCN2C(=O)Cn2cncn2)c1OC (centres undefined)	-16%	-2%
49	COc1ccc(NC(=O)c2cnc3n(c2=O)CCS3)cc1OC	11%	-4%
50	CCC1CCc2sc(C(=O)O)cc2C1 (centres undefined)	.	-37%
51	Cc1sc2ncn(CC(=O)Nc3ccc(C(C)C)cc3)c(=O)c2c1S(=O)(=O)N1CCN(c2ncccn2)CC1	11%	-1%
52	Cc1cc(C)c2c(N)c(C(=O)C(C)(C)C)sc2n1	i	0%
53	Cc1cccc(NC(=O)CN2CCCCCC2)c1	-6%	5%
54	Cc1nn(C)c(C(=O)N2CCc3ccccc32)c1Br	-25%	-11%
55	C[C@@H]1CN([C@H](C)CO)C(=O)CCCn2nncc2CO[C@H]1CN(C)C(=O)c1ccc2ccn(C)c2c1	-24%	-16%
56	CC(=O)Nc1ccc(S(=O)(=O)NCCC(=O)OCC(=O)N2CCN(C(=O)c3ccco3)CC2)cc1	-14%	-7%
57	O=C(Nc1ccccc1O)c1ccc(NS(=O)(=O)c2cccc3cccnc23)cc1	?	-22%
58	CNc1nc(Nc2ccc(C)c(Cl)c2)nc(N)c1[N+](=O)[O-]	?	?
59	Cc1ccc(C(=O)OC2=CC(=O)CC(C)(C)C2)cc1	-1%	-11%
60	CCCCC(=O)NCc1ccc(Cl)cc1	-5%	-9%
61	CCOc1ccc(N(C(C)C(=O)NCCSc2ccc(Cl)cc2)S(C)(=O)=O)cc1 (centres undefined)	-24%	-26%
62	O=C(NCCCN1CCCCC1)c1ccc2c(c1)ncn2C1CCCC1	i	-3%
63	CCOC(=O)c1c(-c2ccc(C)o2)csc1NC(=O)COC(=O)c1cccs1	?	-14%
64	CCCSc1ncc(Cl)c(C(=O)Nc2c(C(=O)Nc3ccc(C)cc3)oc3ccccc23)n1	-12%	-5%
65	O=C(Nc1ccc(N2CCOCC2)cc1)c1cccc2ccccc12	?	-7%
66	CN(CC(=O)Nc1ccc(C#N)cc1)Cc1ccc(Cl)c(Cl)c1	i	-24%
67	O=C(NC1CCCc2ccccc21)c1ccc(F)cc1F (centres undefined)	11%	-1%
68	O=C(c1cccs1)N1C[C@@H](n2cc(C3CC3)nn2)[C@H](O)C[C@@H]1c1ccccc1	-3%	-10%
69	COc1ccc(NC(=O)C(=S)N2CCCC2)cc1	-4%	-8%
70	COn1c(C)c(C(C)=O)c2c3no[n+]([O-])c3ccc21	.	-28%
71	COc1ccc(N2CCN(C(=O)c3[nH]c(C(F)(F)F)nc3-c3ccccc3)CC2)cc1	3%	-15%
72	COc1ccc(/C=N/NC(=O)c2cc(C)oc2C)cc1OCc1ccccc1	?	7%
73	O=C(c1ccc(F)cc1)N1CCC(n2nnc3ccccc32)CC1	i	-4%
74	CN(Cc1ccco1)Cc1cc(-c2ccnc3cc(Cl)ccc23)ccc1O	-13%	2%
75	C/C(=N\NC(=O)c1ccc(CSc2nc(C)cc(C)n2)cc1)C1CCCCC1	-10%	-3%
76	O=C(NCc1ccccc1)C1CC(=O)N(C2CCCCCC2)C1 (centres undefined)	-1%	-8%
77	COC(=O)Cn1cnc2c(C#N)c3n(c2c1=O)CCCC3	i	-14%
78	CCn1c(SCC(=O)N2CCCCC2)nc2c(c1=O)SCC2	i	-10%
79	CC1CC(C)CN(C(=O)CSc2nc(Cc3cccs3)nc3ccccc23)C1 (centres undefined)	-13%	-17%
80	O=C(COC(=O)COc1cccc(F)c1)NCCC1=CCCCC1	i	-6%
81	CCCOC(=O)c1ccc(NC(=O)C(=O)NCC2CCCO2)cc1 (centres undefined)	i	-11%
82	C=CCOc1ccc(/C(O)=C2\C(=O)C(=O)N(CCCOC)C2c2ccncc2)cc1 (centres undefined)	25%	30%
83	CSc1nnc(-c2cc(C)on2)n1-c1ccccc1	i	-6%
84	Cc1nc(NC(=O)c2ccccc2)sc1-c1cc(C(=O)N2CCOCC2)nn1CCO	-10%	10%
85	COCCCN1C(=O)c2ccccc2C1C(=O)NC1CCCCCC1 (centres undefined)	-18%	-3%
86	COc1cccc(CNC(=O)NCc2noc3ccc(C)cc23)c1	-11%	-12%
87	CCCC(=O)Nc1ccc2c(c1)nc(CN1CCN(C(C)=O)CC1)n2C	.	-10%
88	C/C(=N\NC(=O)c1ccn(C)n1)c1ccc(NC(=O)C2CCCC2)cc1	-13%	-15%
89	CCS(=O)(=O)N1CC(=O)N(c2ccc(C)c(C)c2)C(C)(C(=O)NC2CCCCCC2)C1 (centres undefined)	-9%	-10%
90	Nc1ncnc2c1ncn2[C@@H]1O[C@H](CNC(=O)[C@@H](N)Cc2ccccc2)[C@@H](O)[C@H]1O	-13%	-10%
91	CC(=O)c1ccc(NC(=O)C2CCCN2S(=O)(=O)c2ccc(F)cc2)cc1 (centres undefined)	0%	0%
92	Oc1ccccc1C=NN=C1c2ccccc2-c2ccccc21	i	-5%
93	COc1ccc(-n2nc3cc(C)c(NC(=O)c4cccnc4)cc3n2)cc1	.	-19%
94	Cc1ccc(NC(=O)C(C)Sc2nc(=O)cc(N)n2-c2cccc(C)c2)cc1 (centres undefined)	-9%	-5%
95	COc1ccc(CNc2nc(-c3cccnc3)nn2C(=O)C(C)C)cc1	0%	-27%
96	COc1ccc(-n2c(Cc3cc(=O)[nH]c(=O)[nH]3)nnc2SCC(=O)N2CCC(C)CC2)cc1	-10%	-6%

Next section:
cpd	Molecule	Vaccinia mCherry	VACV Venus inh
97	COc1ccc(-c2noc(CN3CCN(c4cccc(Cl)c4)CC3)n2)cc1	-6%	-2%
98	Cc1cccc(Nc2sc(C(=O)c3ccc(Cl)cc3)c(N)c2C(N)=O)c1	-12%	-3%
99	O=S1(=O)CCC(NC(=S)N2CCCCC2)C1 (centres undefined)	-2%	-8%
100	CCc1cnc(Nc2nc(C(N)Cc3ccc(Cl)cc3)cs2)nc1 (centres undefined)	i	-14%
101	Cc1ccccc1C(=O)NNC(=O)C12CC3CC(CC(C3)C1)C2	i	-6%
102	O=C(NCc1cccnc1)C1CCC(c2ccc(Cl)cc2)CC1 (centres undefined)	?	-28%
103	COc1ccc(/C=N/NC(=O)c2ccc(-n3cnnn3)cc2)cc1	-6%	2%
104	Cc1ccc(OCCC(=O)OCC(=O)N2CCN(S(=O)(=O)c3ccc(C)cc3C)CC2)cc1	-13%	-8%
105	Cc1ccc(C)c(OCCC(=O)N2CCN(S(=O)(=O)c3cc(C)ccc3C)CC2)c1	-27%	-20%
106	O=C(N/N=C/c1cc([N+](=O)[O-])ccc1O)c1c[nH]c2ccccc12	?	-3%
107	Nn1c(CSc2ccccn2)nc2ccccc2c1=O	.	-17%
108	Cc1c(C=O)c2ccccc2n1Cc1ccccc1F	-21%	-23%
109	CC(C)N(C)c1ncnc2c1ncn2[C@H]1CN(C2CCCC2)C[C@@H](CO)O1	i	-2%
110	COc1ccc(CN2C(=O)NC(=O)/C(=C\c3ccc(OC)c(OC)c3OC)C2=O)cc1	i	7%
111	Cc1noc(/C=C/c2cccs2)c1S(=O)(=O)N1CCC(C(=O)Nc2ccc(F)c(Cl)c2)CC1	-19%	-22%
112	COc1ccc(-c2[nH]c3c(c2-c2c(-n4cccc4)n(C)c(=O)[nH]c2=O)c(=O)[nH]c(=O)n3C)cc1F	-6%	-11%
113	COc1ccc2c3c(cccc13)C(=O)CC2	-18%	42%[activator]
114	COc1ccc(NC(=O)c2ccc3nc(CCc4ccccc4)oc3c2)cc1	-11%	1%
115	C/C=C1/C(=O)C[C@@H]2[C@H]3CCC4=CC(=O)CC[C@]4(C)[C@@H]3CC[C@]12C	-1%	-14%

Source: PubChem
